D2 potentiator – human D2 receptor positive allosteric modulation. P14416. DiscoveRx D2 beta-arrestin cells, luminescence, 90 min; 100% = 57 uM dopamine signal. potentiation, % (no concentration beside the values). 360,000 tested, 0.23% active; active = potentiation of 50% or more; inconclusive = 30% to 50%; inactive = 30% or less;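 note: compound concentration not given in the record; tested on top of an EC20 dose of dopamine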
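PathHunter beta-arrestin assay in DiscoveRx D2 cells. Compounds were added with an EC20 of dopamine (50 nM final) for 90 min at 37 deg C. Luminescence was read 1 h after detection reagent, with 57 uM dopamine as the EC100 control.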
CtBP-E1A inh – inhibitors of CtBP/E1A interaction | 340,000 tested, 0.49% active | AlphaScreen GST-E1A/His-CtBP binding, 1536-well; hits give low values; control for the full effect not named in the record | activity change, % (concentration not given with the values); in the data active means activity change below about -65%; inconclusive means about -30% to -65%; inactive means above about -30%; note: % is set by controls: 0 for no effect and ±100 for the full control effect
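Steps: dispense buffer (Tris pH 8.0, NaCl 300 mM, TCEP 1 mM, BSA, Tween 20); add 5X protein mix (GST-E1A, His-CtBP, 125 nM each); pin 23 nL compound; 2 h at 37 °C, dark; add 5X beads (50 ug/mL); 1 h; read.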
Six1-Eya2 blk – inhibitors of human Six1/Eya2 interaction | AID 651725 | activity change, % (no concentration beside the values) | AlphaScreen GST-Six1/His-Eya2 binding, biochemical; hits give low values; control for the full effect not named in the record | 360,000 tested, 0.56% active; in the data active = activity change below about -65%; inconclusive = about -30% to -65%; inactive = above about -30%; note: % is set by controls: 0 for no effect and ±100 for the full control effect; compound concentration not given in the record
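Compounds are tested against tagged Six1 and Eya2 proteins bridged by glutathione donor and nickel acceptor beads; after a one-hour incubation at 37 °C without light, AlphaScreen emission is recorded.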
TRPML1 blocker – human mucolipin-1 channel inhibition. activity change, negative = inhibition, % (no concentration beside the values). Q9GZU1. TRPML1-inducible cells, Ca2+ dye fluorescence, FDSS; hits give low values; inhibition of EC80 agonist-evoked calcium signal. 390,000 tested, 0.02% active; in the data active means activity change below about -50%; inconclusive means about -30% to -50%; inactive means above about -30%;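 note: stimulus is agonist 54-4 at its EC80 concentration; % is set by controls: 0 for no effect and ±100 for the full control effect; compound concentration not given in the record; the text of the record puts the active cut at -80%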
Target sequence (Q9GZU1 whole entry, looked up): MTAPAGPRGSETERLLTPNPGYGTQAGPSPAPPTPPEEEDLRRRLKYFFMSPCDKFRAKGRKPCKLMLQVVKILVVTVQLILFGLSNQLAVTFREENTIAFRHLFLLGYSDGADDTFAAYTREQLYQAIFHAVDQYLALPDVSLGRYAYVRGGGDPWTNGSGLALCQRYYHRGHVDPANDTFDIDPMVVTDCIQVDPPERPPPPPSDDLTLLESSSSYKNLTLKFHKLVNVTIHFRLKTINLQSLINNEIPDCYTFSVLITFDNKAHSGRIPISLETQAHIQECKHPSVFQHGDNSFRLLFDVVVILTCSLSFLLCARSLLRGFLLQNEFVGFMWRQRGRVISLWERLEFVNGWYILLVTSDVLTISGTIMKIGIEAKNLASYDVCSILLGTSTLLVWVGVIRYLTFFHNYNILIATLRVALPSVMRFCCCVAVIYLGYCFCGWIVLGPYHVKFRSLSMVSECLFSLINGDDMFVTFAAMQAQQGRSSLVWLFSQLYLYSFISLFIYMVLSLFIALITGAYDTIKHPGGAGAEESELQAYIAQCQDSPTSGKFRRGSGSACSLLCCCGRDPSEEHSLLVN
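TRPML1-DL cells, Tet-induced overnight (~16 h, 37 °C) at 1,500 cells/well, were loaded with Ca8 no-wash dye plus quencher for 45-90 min at room temperature. Compounds were pinned during FDSS kinetic reading; agonist 54-4 at EC80 (4 uM final) then added.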
TRPML1 ag – agonists of human TRPML1 channel; AID 624414; TRPML1-expressing cells, Ca2+ dye fluorescence, FDSS; host cell line not named in the record; reference of the full effect not given here; activation, % (no concentration beside the values); 410,000 tested, 0.12% active; in the data active = activation above about 50%; inconclusive = about 30% to 50%; inactive = below about 30%; note: 0% is about no effect; the text of the record puts the active cut at 80%
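Cells: TRPML1-DL, 1X Tet inducer, ~16 h at 37 degrees C/5% CO2. Dye: ABD Ca8 no-wash + quencher, 45-90 min RT. Read: 10 s baseline, compound add, 110 s agonist phase; 54-4 EC80 (4uM final), 110 s antagonist phase.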
TRPV1 potentiator – human TRPV1 potentiation; AID 540277; TRPV1-expressing cells, Fluo-8 calcium influx, capsaicin EC20 potentiation; host cell line not named in the record; control for the full effect not named in the record; 320,000 tested, 0.02% active; Q8NER1; potentiation, % at 8.33 µM; active means potentiation above 80%; inconclusive means 30% to 80%; inactive means below 30%; note: 0% is about no effect
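Cells expressing TRPV1 were dye-loaded with Fluo-8 and read kinetically: 10 s baseline, 3 min after compound (agonist portion), then 2 min after EC20 capsaicin (allosteric enhancer portion). Calcium-bound dye fluorescence at 480/520 nm.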
Active calls of the source: *; u = inconclusive; x = no result given.

The line under a structure holds: TRPML1 blocker, Six1-Eya2 blk, TRPML1 ag, TRPV1 potentiator, CtBP-E1A inh, D2 potentiator
COc1ccc(CSC2=NCCN2)cc1Br
    2, 10, -1.3, -1, x, -6
CC1CCN(S(=O)(=O)c2cccc(S(=O)(=O)N3CCOCC3)c2)CC1
    -13, 1, 0.8, -1, 0, 4
CCCCCn1c(=O)c(C(=O)OCC)c(Cl)c2ccccc21
    -14, 7, 0.5, -16, 8, -2
Cc1ccc2nc(C(C)(C)C)c(Cc3ccsc3)n2c1
    x, 3, -0.6, x, -1, -26
CN1CCN(CCCC(=O)c2ccc(F)cc2)CC1
    1, 1, -0.4, -16, 7, -52
CC(C)c1nnc2n1N=C(c1ccc(Cl)cc1)CS2
    -8, -3, 2.7, -14, -5, -2
CCNC(=S)NNC(=O)c1csc(CC)c1
    -20, -1, 3.0, 8, -6, -1
COc1ccccc1NC(=O)CSc1nnc(Cc2cccs2)n1C
    -8, 3, 0.2, -5, -2, -41
O=C1S/C(=C\c2ccc(N3CCOCC3)o2)C(=O)N1Cc1ccc(F)cc1
    3, -1, 2.7, 16, -11, 14
O=C(COc1ccc(S(=O)(=O)N2CCOCC2)cc1)NC1CCCCC1
    -7, 3, 0.1, -10, 1, -9
O=C(O)CSCc1cnn(-c2ccccc2)c1-n1cccc1
    -3, 29, -0.8, -7, 51, -4
COc1ccc(-c2ccnc(SCC(=O)c3ccc(OC)c(OC)c3)n2)cc1
    1, 6, 0.4, u, 0, 9
O=C(NC1CCCCNC1=O)c1ccccc1 (centres undefined)
    -1, 0, -0.2, -14, -5, -5
CCOC(=O)c1c(O)c2ccccc2n(C)c1=O
    -3, 7, 2.1, -5, 1, 4
COc1ccccc1C(=O)NC(=S)Nc1cccc2cc(O)ccc12
    7, -21, 1.8, x, -15, -8
CC(C)C[C@H](NC(=O)c1[nH]cnc1C(=O)N[C@@H](C)C(=O)OC(C)(C)C)C(=O)OCc1ccccc1
    -9, -13, 3.3, 0, x, -6
CCOc1cc(NC(=O)CCl)c(OCC)cc1NC(C)=O
    3, 2, -0.9, -9, 7, -2
CCc1ccccc1NC(=O)CN(C)C(=O)COC(=O)c1cccnc1Cl
    6, -2, -0.5, x, 2, -3
COc1cccc(NC(=S)NCc2ccc(F)cc2)c1
    39, -23, 0.8, -17, -4, -5
COc1ccc(OCCOC(=O)CNC(=O)c2cccc(C)c2)cc1
    -15, 12, 0.5, -9, 0, -6
COc1ccccc1NC(=O)N1CCCC1C(=O)NCC1CCCO1 (centres undefined)
    -4, 22, 1.3, -5, 0, 0
O=C(Nc1cccc2ccccc12)/C(Cl)=C/c1ccccc1
    18, 3, 1.0, 14, -15, -18
O=C(O)CCn1nc(-c2ccc(F)cc2)cc(Cc2ccccc2)c1=O
    -7, -4, -1.2, -9, 5, -5
COc1cccc2c(=O)n(CC(=O)Nc3ccccc3F)ccc12
    -27, 9, -0.7, -32, 0, 0
C=CCN1C(=O)C(O)(CC(=O)c2ccccc2)c2ccccc21 (centres undefined)
    -9, 0, 0.2, -13, 4, -5
CN1CCN(S(=O)(=O)c2ccc(Sc3nnc(-c4cccs4)n3-c3ccccc3)nc2)CC1
    1, 4, 0.0, x, 4, -15
Cc1nc(NC(=O)CSc2nnc(C3CC3)n2C)sc1C(=O)N(C)C
    11, 7, -0.4, -9, 8, 8
Cc1cc(C)c(C#N)c(SCS(=O)c2ccc(C(C)(C)C)cc2)n1 (centres undefined)
    -5, -1, 1.6, 5, 11, 5
CCN1CCN(CC(=O)Nc2cc(F)ccc2C)CC1
    4, 4, 0.1, 0, 7, -4
COc1cc(NC(=O)c2cccc(C)c2)c(OC)cc1NC(=O)CN1CCCCC1
    29, -24, -0.2, 16, -24, -9
COc1cc(NC(=O)c2cc(-c3ccccc3Cl)on2)cc(OC)c1OC
    16, -6, 1.4, 11, -4, -21
CCC(C)n1cnc2c(c1=O)c1nc3ccccc3nc1n2-c1ccc2c(c1)OCCO2 (centres undefined)
    10, 0, 2.2, 2, 7, -3
COc1ccc(C(NC(=O)CN2CCCCCC2)c2ccc(OC)cc2)cc1
    -5, -2, 0.3, u, -7, -19
Cc1ccc(Cn2c(SCCN3CCCCC3)nc3c2c(=O)[nH]c(=O)n3C)cc1
    -6, 3, -0.5, 6, 4, -13
COc1ccc(CNc2ncc(-c3ccccc3)n2C)c2ccccc12
    -6, -20, 0.3, 17, -7, -1
Nc1ccc(N2CCOCC2)c(Cl)c1
    -6, -3, -1.0, 5, -1, -2
O=C(COc1ccc(S(=O)(=O)N2CCCC2)cc1)NCc1cccnc1
    -4, 2, -0.6, -5, -2, -2
Cc1ccc(S(=O)(=O)Nc2ccccc2/C=N/c2nc3ccccc3n2C(C)C)cc1
    -2, -7, -0.6, 7, -23, -14
CCNC(=S)NNC(=O)Cn1c(=O)c2c(ncn2CCOC)n(Cc2ccccc2)c1=O
    -12, -2, -0.6, 4, -6, -6
CCCc1nnc(SCC(=O)Nc2ccc3c(c2)OCCO3)n1CCOC
    -4, -2, -0.4, 1, 0, -1

Some of the entries so far, with each value named:
> COc1ccc(CNc2ncc(-c3ccccc3)n2C)c2ccccc12
  TRPML1 blocker: -6 | Six1-Eya2 blk: -20 | TRPML1 ag: 0.3 | TRPV1 potentiator: 17 | CtBP-E1A inh: -7 | D2 potentiator: -1

> COc1ccc(C(NC(=O)CN2CCCCCC2)c2ccc(OC)cc2)cc1
  TRPML1 blocker: -5 | Six1-Eya2 blk: -2 | TRPML1 ag: 0.3 | TRPV1 potentiator: u | CtBP-E1A inh: -7 | D2 potentiator: -19

The list goes on.
The line under a structure holds: TRPML1 blocker, Six1-Eya2 blk, TRPML1 ag, TRPV1 potentiator, CtBP-E1A inh, D2 potentiator
O=P(Cc1cccc2ccccc12)(c1ccccc1)c1ccccc1
    4, 6, 2.5, x, -9, -8
CCCCn1c(N)c(N(CC(C)C)C(=O)c2cccc(S(=O)(=O)N(CC)c3ccccc3)c2)c(=O)[nH]c1=O
    -5, 2, 0.9, x, -2, 8
C=CCn1c(CNC(=O)c2ccccc2F)nnc1SCC(=O)N1CCOCC1
    -1, -8, 0.2, -1, -6, -12
CSc1ccc(S(=O)(=O)NCC(=O)OCC(=O)NCC2CCCO2)cc1[N+](=O)[O-] (centres undefined)
    19, 5, -0.1, 3, 0, 1
Cc1nn(Cc2ccccc2Cl)c(Cl)c1/C=C/C(=O)OCC(=O)NC(N)=O
    -4, 3, -0.5, -7, 8, 2
NC(=O)c1ccccc1N/C=C/C(=O)c1ccc(Cl)cc1Cl
    38, -12, 2.1, -9, -12, -4
Cc1ccc(Sc2c([N+](=O)[O-])c(=O)n(C)c3ccccc23)cc1
    -15, 2, 1.1, -13, -1, -3
O=c1c(-c2c(O)cc(O)c3c(=O)cc(-c4ccc(O)cc4)oc23)c(-c2ccc(O)cc2)oc2cc(O)cc(O)c12
    x, -68*, x, -6, -16, -52
Cc1ccccc1CN(CC1CCC(C(=O)O)CC1)C(=S)Nc1ccccc1F (centres undefined)
    17, 4, 0.0, 16, 0, -4
O=S(=O)(Nc1ccc(O)c(Sc2nc3ccccc3s2)c1)c1ccc(F)cc1
    -10, -7, -0.4, -3, -10, u
COc1ccc(NC(=O)c2cc3c(=O)n4ccccc4nc3n2C)c(OC)c1
    -18, 6, -0.2, 12, -11, -1
O=C(Cn1nc(-c2ccccc2)ccc1=O)NCc1ccc(F)cc1
    -13, 12, -0.6, -5, -2, -8
COc1ccc(-n2cccc2C=O)cc1OC
    7, 2, -0.8, x, 0, -8
O=C(CCN1C(=O)c2ccccc2C1=O)NC(=S)Nc1ccccc1Cl
    -3, -9, 1.8, -2, -5, 1
Cc1ccc(OCCCC(=O)NC2CCCCC2)cc1
    0, 6, -0.2, -24, 0, -5
O=C(N/N=C/c1ccc(OC(=O)c2ccccc2)c([N+](=O)[O-])c1)c1ccc(O)cc1
    1, u, 2.4, -24, -23, -28
CC(=O)c1c(O)c(C)c(O)c2c1OC1=Cc3c(c(C)nn3-c3ccccc3)C(=O)C12C (centres undefined)
    45, -14, 0.3, x, 9, -4
CCOc1ccccc1NS(=O)(=O)c1ccc(OC)c(OC)c1
    1, -1, -0.5, -6, 0, -3
Cc1ccc(NC(=S)NNC(=O)c2nn(C)cc2Cl)cc1
    1, -18, -0.4, 8, -28, -20
O=C(NCC1CCCO1)c1nn2c(C(F)(F)F)cc(-c3cccs3)nc2c1Br (centres undefined)
    11, -9, -0.8, 7, -15, -5
CCOC(=O)c1csc(NC(C)=O)n1
    11, 8, 0.7, 14, -5, -2
Cc1ccc(S(=O)(=O)NCc2cn3ccsc3n2)c(C)c1
    8, 0, -1.2, 9, 3, -10
CCN(CC)C(=O)C1CCCN(Cc2ccc(OC)c(C)c2C)C1 (centres undefined)
    13, -3, -0.3, u, -7, -13
COCCn1cc(C(=S)N2CCOCC2)c2ccccc21
    -8, 0, 0.4, -9, 1, -16
Cc1ccccc1-c1nc(CS(=O)(=O)CC(=O)Nc2cc(F)ccc2F)c(C)o1
    -3, -4, -0.1, -42, -1, -1
Cc1cc(OC(C)C(=O)Nc2ccccc2C(=O)N2CCCC2)ccc1Cl (centres undefined)
    35, -1, 1.6, -12, 9, -18

Compound profiles, from the list above. Screens in order: TRPML1 blocker, Six1-Eya2 blk, TRPML1 ag, TRPV1 potentiator, CtBP-E1A inh, D2 potentiator
Shown for `CCOC(=O)c1csc(NC(C)=O)n1` = 11, 8, 0.7, 14, -5, -2
Shown for `Cc1ccc(S(=O)(=O)NCc2cn3ccsc3n2)c(C)c1` = 8, 0, -1.2, 9, 3, -10
Shown for `COCCn1cc(C(=S)N2CCOCC2)c2ccccc21` = -8, 0, 0.4, -9, 1, -16
Shown for `Cc1ccccc1-c1nc(CS(=O)(=O)CC(=O)Nc2cc(F)ccc2F)c(C)o1` = -3, -4, -0.1, -42, -1, -1

Screens: PubChem, National Center for Advancing Translational Sciences (NCATS)
